Assay outcomes deposited in PubChem BioAssay by ICCB-Longwood Screening Facility, Harvard Medical School.
HCMV NEC inh = disrupts HCMV UL50-UL53 complex binding; HTRF UL50-UL53 interaction, normalized percent inhibition; inhibition, % (concentration not given with the values); hit rate 0.15% among 190,000; AID 1918969;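 active = both replicates at 50% or more, plus weaker picks with an unusually low signal ratio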;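 note: stock transfer was 100 nL into about 20 µL; 0% = negative control wells and 100% = wells with untagged competitor protein; inactives centre near -12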
Sa growth inh = S. aureus growth inhibition; S. aureus RN4220 growth, OD600, 20 h, 42 °C; stronger effect = lower value; relative growth, % (test concentration not listed); hit rate 0.53% among 170,000; AID 720641;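 active = growth at 42 °C up to 50% and 20 or more points under that at 30 °C, or under 10% at both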;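 note: 300 nL library stock went into each well; scaled to the means of positive and negative controls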
GIV-Gai inh = inhibitors of GIV GBA-motif binding to rat Galpha-i3 | P08753 | Galpha-i3/FITC-GIV peptide fluorescence polarization, 90 min; stronger effect = lower value; scaled: aluminum fluoride 0%, vehicle 100% | percent of control (FP), % (test concentration not listed) | hit rate 0.42% among 210,000 | AID 1224905;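 active = replicate mean at 85% of control or lower, very high polarization wells dropped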;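 note: wells of about 15 µL received 100 nL stock; the first replicate is given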
Target sequence (P08753 whole entry, looked up): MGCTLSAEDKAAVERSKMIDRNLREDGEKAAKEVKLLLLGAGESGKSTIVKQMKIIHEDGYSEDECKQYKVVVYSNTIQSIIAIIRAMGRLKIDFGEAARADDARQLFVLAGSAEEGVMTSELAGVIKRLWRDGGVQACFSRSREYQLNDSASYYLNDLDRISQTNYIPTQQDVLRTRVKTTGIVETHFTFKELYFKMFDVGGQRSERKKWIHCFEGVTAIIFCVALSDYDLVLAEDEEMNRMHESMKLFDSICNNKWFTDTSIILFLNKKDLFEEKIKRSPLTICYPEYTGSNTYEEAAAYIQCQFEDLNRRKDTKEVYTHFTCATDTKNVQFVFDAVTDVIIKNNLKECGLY
Sa growth inh second temp = also measured in Sa growth inh; calls as there; relative growth, %; measured here: growth at 30 °C;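 optical density after 20 h as mean of two plates; 100% = untreated growth and lower means inhibition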
* marks the source's active call; other numbers are inactive results; / = not tested or not shown; & = joins results of further samples.

Structure	HCMV NEC inh	Sa growth inh	Sa growth inh second temp	GIV-Gai inh
Cn1c(=O)[nH]c(=O)c2c1nc(SCc1cccc(Br)c1)n2CC(O)COc1ccc(Cl)cc1 (stereo unspecified)	-9	/	/	103
CCC(C(=O)NN1C(=O)c2ccccc2C1=O)c1ccccc1 (stereo unspecified)	-29	111	87	103
CCN(CC)C(=O)Cn1cnc2sc(C(=O)Nc3c(F)cc(F)cc3Br)c(C)c2c1=O	-26	/	/	105
O=S(=O)(c1ccc(Cl)cc1)N1CCCC(c2nc(-c3ccc(Br)cc3)no2)C1 (stereo unspecified)	-19	/	/	101
O=C(NCCCn1ccnc1)c1cc(-c2ccc(Cl)c(Cl)c2)on1	-1	82	66	103
CN(C)CC(C)(C)Cn1c(=S)[nH]c2ccccc2c1=O	-14	102	86	/
CCn1c2ccccc2c2cc(CN3CCN(Cc4ccco4)CC3)ccc21	-6	95	92	95
Cc1ccc(CNS(=O)(=O)c2ccc(C(C)(C)C)cc2)n1C	-6	124	88	105
CCOc1cccc(C(=O)Nc2ccccc2C(=O)OC)c1	9	99	96	104
CC(=O)OC(C)(C)C1Cc2cc3ccc(=O)oc3cc2O1 (stereo unspecified)	-35	98	89	105
CC(C)COc1ccccc1O	-5	100	85	/
Cc1sc2c(c1C)c(=O)n(Cc1ccccc1)c(=O)n2CC(=O)NC1CCCC1	-3	99	86	103
Cc1[nH]c(=O)[nH]c(=O)c1S(=O)(=O)N1CCCC(C(=O)NCc2ccc3c(c2)OCO3)C1 (stereo unspecified)	/	92	94	105
COc1ccc(CCNC(=O)Cn2c(=O)c3cccn3c3ccc(F)cc32)cc1OC	0	123	95	101
CC1CCC2(CC1)C(=O)N(S(=O)(=O)c1cccc(C(F)(F)F)c1)C(=O)N2C (stereo unspecified)	9	98	96	/
CCN(CC)C(=O)Cn1c(=O)n(CCc2ccccc2)c(=O)c2c1c(C)nn2CC	-1	/	/	99
CCCn1c(NC(=O)c2ccc(OCc3c(C)noc3C)cc2)nc2ccccc21	-11	28	20	/
CC(Sc1nc2ncccc2o1)C(=O)N(C)c1ccc(F)cc1 (stereo unspecified)	-5&3	106	97	105&108
CN(C)S(=O)(=O)c1cccc(COC(=O)C2=NN(c3ccccc3)C(=O)CC2)c1	-31	104	96	/
Cc1cc2[nH]c(=O)[nH]c2cc1NS(=O)(=O)c1cc(F)ccc1F	-22	/	/	107
O=C(NCCn1c(-c2ccc(F)cc2)nc2cccnc21)Nc1ccccc1Cl	3	/	/	121
CC(C)=NOC(=O)c1scc(S(C)(=O)=O)c1Cl	-2	99	98	110
CC1CCC(NC(=O)N(CCCl)N=O)CC1 (stereo unspecified)	-37	94	91	/
COc1ccc(CN2CCc3c(c(=O)n4ncc(C(=O)N5CCN(c6ccccc6F)CC5)c4n3C)C2)cc1	/	100	83	106
CCN1CCc2nc(NC(=O)CCc3ccccc3)sc2C1	-16	93	90	/

Molecules listed so far with bromine:
Structure	HCMV NEC inh	Sa growth inh	Sa growth inh second temp	GIV-Gai inh
Cn1c(=O)[nH]c(=O)c2c1nc(SCc1cccc(Br)c1)n2CC(O)COc1ccc(Cl)cc1 (stereo unspecified)	-9	/	/	103
CCN(CC)C(=O)Cn1cnc2sc(C(=O)Nc3c(F)cc(F)cc3Br)c(C)c2c1=O	-26	/	/	105
O=S(=O)(c1ccc(Cl)cc1)N1CCCC(c2nc(-c3ccc(Br)cc3)no2)C1 (stereo unspecified)	-19	/	/	101

Next compounds follow:
Structure	HCMV NEC inh	Sa growth inh	Sa growth inh second temp	GIV-Gai inh
O=C1c2cccc3c(S(=O)(=O)N4CCOCC4)ccc(c23)N1C(=O)C1CCCCC1	-35	99	87	99
Cc1ccccc1CN1c2ccccc2-c2nc(SCC(=O)Nc3cc(F)ccc3F)ncc2S1(=O)=O	/	108	74	105
N#C/C(=C\C=C\c1ccccc1)C(N)=S	-38	72	42	148
Cc1cccc(NC(=O)CCNS(=O)(=O)c2c(C)[nH]c(C)c2C(=O)N2CCCC2)n1	-37	/	/	110
CCN(c1ccccc1)c1cc(N2CCOCC2)c2nonc2c1[N+](=O)[O-]	-17	/	/	108
CSc1nsc(SCC(=O)NC(C)CCc2ccccc2)n1 (stereo unspecified)	/	117	97	97
O=S(=O)(CCN(Cc1cccs1)C(=S)Nc1cccc(F)c1)c1ccc(Cl)cc1	-1	102	85	104
CCN(CC)CCn1c2ccccc2c2cnc(N)c(C#N)c21	-10	87	86	99
N#CC(C#N)=NNc1ccc2c(c1)OCO2	-76	0.6*	0.3*	/
CCOC(=O)c1oc2ccccc2c1COC(=O)C1CSC2(C)CCC(=O)N12 (stereo unspecified)	3	94	101	/
COC(=O)Cc1cc(=O)n(-c2ccccc2)[nH]1	-5&0	103&75	78&88	101
CCC(=O)N1CCN(c2ccc(NC(=O)COc3ccc(Cl)cc3Cl)cc2)CC1	-12	120	72	/
Cc1ccc(-c2cc3n(n2)CCC(=O)N3CC(=O)N2CCC(C)CC2)cc1	1	/	/	105
O=C(Nc1ccc(-c2ccno2)cc1)c1cc(-c2ccncc2)n[nH]1	-10	/	/	107
CCCOc1ccc(CNC(=O)C(CC)n2nc(C)c3sc4ccccc4c3c2=O)cc1 (stereo unspecified)	-22	120	91	104
COc1cc(Nc2ncc3c(n2)CCN(Cc2cc(F)cc(F)c2)C3)cc(OC)c1	/	92	96	106
CCN(CC)CCSc1nc(O)c(-c2ccccc2)c(=O)[nH]1	0&25	94	88	109&103
COc1ccc(/C=N/NC(=O)c2cc3c(=O)n(C)c(=O)n(C)c3nc2C)cc1	-23	95	84	97
COc1cc(Nc2nc(SCC(=O)c3ccc(O)c(O)c3)nc3ccccc23)cc(OC)c1	/	69	35	106
Cc1ccc(C(C)NC(=O)CCc2nc(-c3cc4cc(C)ccc4[nH]c3=O)no2)cc1 (stereo unspecified)	-28	/	/	106
CN(C)Cc1ccc(O)c(CN(C)C)n1	/	83	89	100
Cc1ccc(-c2csc(=Nc3ccccc3)n2CCCO)cc1	7	111	82	103
Cc1ccc(-n2c(=O)[nH]c3c(sc4ncccc43)c2=O)cc1Cl	-33	/	/	102
O=C(Cn1cnc(S(=O)(=O)N2CCCCC2)c1)N1CCc2ccccc2C1	-20	/	/	100
CCN(CC)C(=O)c1sc2nc(-c3ccncc3)[nH]c(=O)c2c1C	-57	89	84	/
COc1cc(/C=c2/sc3nc4c(C)cc(C)cc4n3c2=O)cc(Br)c1O	16	/	/	141
CNC(=S)N1c2ccccc2CC1C (stereo unspecified)	-18	105	97	/
CC(c1nnc(SCc2nnc(-c3ccco3)o2)n1-c1ccc(F)cc1)N1CCCCC1 (stereo unspecified)	0	89	100	/
O=C1CCC(=O)N1CN(C(=O)C(F)(F)F)c1ccccc1	/	101	83	106
COc1ccc(C2CC(=O)c3cc(-c4nc(-c5cccc([N+](=O)[O-])c5)cs4)c(=O)n(-c4ccccc4)c3C2)cc1 (stereo unspecified)	-4	99	89	104
c1coc(C2Nc3ccccc3-c3nc4ccccc4n32)c1 (stereo unspecified)	/	108	58	101
CSc1nc2c(sc3ccccc32)c(=O)n1CCCC(=O)NCC1CCCO1 (stereo unspecified)	-2	101	87	104
Cc1nc(-c2cccc(NC(=O)C3CC(=O)N(C4CCCC4)C3)c2)no1 (stereo unspecified)	-9	/	/	105
Cc1cc(C)c(OCC(=O)O)c(Cl)c1	-6	158	118	104
COc1cccc(N2CC(NC(=O)COc3ccccc3F)CC2=O)c1 (stereo unspecified)	/	93	90	96
O=C(Cn1ncc2c(Cl)cccc21)NCCCN1CCCC1	-23	81	84	99
Cc1ccc2c(=O)c(C(=O)c3ccc(F)cc3)cn(CC(=O)NCCc3ccccc3)c2n1	/	99	102	113
O=C(Oc1ccc(-c2csnn2)cc1)c1cccnc1	-3	98	75	95
Cn1nnc2sc(-c3ccccc3)cc2c1=O	-76	89	71	108
O=C(NCc1ccco1)C1CCCN1S(=O)(=O)c1ccc(-c2ccc(=O)[nH]n2)s1 (stereo unspecified)	-80	105	88	106
O=C(Cc1cccs1)Nc1scc(-c2ccccc2)c1C(=O)NCc1ccco1	4	102	105	110
NS(=O)(=O)c1cccc2c1c([N+](=O)[O-])cc1nc(O)c(O)nc12	-98&-125	/	/	92
COc1ccccc1OCC(=O)NCC(c1ccc(Cl)cc1)N1CCOCC1 (stereo unspecified)	-27	108	84	104
O=c1c2c3c(sc2n(Cc2cc(=O)n4ccccc4n2)c(=O)n1-c1ccc(Cl)cc1)CCC3	-4	101	93	103
Cc1onc(-c2ccccc2Cl)c1C(=O)Oc1ccc(Br)cc1	6	102	94	102
COc1cc(/C=C2/N=C(c3ccco3)OC2=O)ccc1OC(C)=O	-41	101	93	103
O=C(Nc1ccc2c(c1)OCCO2)c1cccc(Nc2cc(-c3ccccc3)ncn2)c1	-26	/	/	100
O=C(CSc1ncnc2sccc12)Nc1ccccc1	-9	98	83	/
COC(CNC(=O)C1CCC(CNS(=O)(=O)c2ccc(C)cc2)CC1)OC (stereo unspecified)	-36	95	97	106
CC(C(=O)N1CCc2ccccc2C1)n1ncc2ccccc21 (stereo unspecified)	-10	99	86	107

In another format: results already given
Values in the order – HCMV NEC inh, Sa growth inh, Sa growth inh second temp, GIV-Gai inh
- Cc1nc(-c2cccc(NC(=O)C3CC(=O)N(C4CCCC4)C3)c2)no1 (stereo unspecified)
→ -9, /, /, 105
- Cc1cc(C)c(OCC(=O)O)c(Cl)c1
→ -6, 158, 118, 104

(further entries)
Structure	HCMV NEC inh	Sa growth inh	Sa growth inh second temp	GIV-Gai inh
Cc1cccc([C@H]2N(c3nccs3)C(=O)[C@@H]3CCCN32)c1	-42	/	/	107
CC1CCN(CC(O)c2ccc3cc[nH]c3c2)CC1 (stereo unspecified)	2	121	96	105
CC(=O)Nc1ccc(NC(=O)CN(CCc2ccccc2)S(C)(=O)=O)cc1	0	99	99	101
Cc1cccc(C(=O)Nc2nnc(S(=O)(=O)N(C)Cc3ccccc3)s2)c1	-6	114	74	106
CCOc1ccc2c(c1)c1nnc(-c3ccc(C)cc3)c-1cn2Cc1ccccc1	-14	/	/	114
CC(=O)N1C(c2ccccc2)SC(C)(C)C1C(=O)O (stereo unspecified)	-9	91	81	103
CCN(c1ccccc1)C1SC(=O)NC1=O (stereo unspecified)	-5	100	96	93
CCOC(=O)C(c1ccccc1)N1CCN(c2ccccc2F)CC1 (stereo unspecified)	-18	110	86	104
COC(=O)c1cc2c(cc1Cl)N1CCCCCC1=NS2(=O)=O	-17	98	95	/
CCc1ccc(NC(=O)N2CCN(Cc3nc(-c4ccc(C(=O)NC)cc4)oc3C)CC2)cc1	10	/	/	104
c1ccc(CNC2=NCCCS2)cc1	-17	105	84	/
CCc1ccc2[nH]c(=O)c(C(c3nnnn3C3CCCC3)N(Cc3ccccc3)Cc3ccco3)cc2c1 (stereo unspecified)	32	109	102	101
CCN(CC)C(=O)Cn1cc(SCC(=O)Nc2cccc(F)c2)c2ccccc21	/	103	89	109
O=C(COc1ccc2c(=O)c(Oc3ccccc3Br)coc2c1)OCc1ccccc1	-10	/	/	99
CCCCCn1nc(C(=O)O)c2ccccc2c1=O	-8	81	90	/
COc1ccc(Cn2c(C)ccc2C)cc1	-12	92	87	/
CCOc1ccccc1C1SCC(=O)N1CCN1C(=O)S/C(=C\c2ccc(F)cc2)C1=O (stereo unspecified)	-11	83	79	/
COc1ccc(Nc2nc(N)nc(CSc3nc4ccccc4s3)n2)cc1	-27	94	83	106
O=C(NCCC1=CCCCC1)c1[nH]nc2c1CSc1ccccc1-2	-6	/	/	106
CCc1ccc(OCC(=O)OC2CCS(=O)(=O)C2)cc1 (stereo unspecified)	-2	84	82	/
Cn1c(SCc2nc3ccccc3c(=O)n2-c2ccc([N+](=O)[O-])cc2)nc2ccccc21	-16	/	/	105
Cc1cccc(N2CCN(C(=O)Cc3c(C(=O)O)c(C)cn3C)CC2)c1C	/	97	91	101
O=C(Nc1ccc(F)cc1Cl)c1cc(-c2ccncc2)n[nH]1	0	/	/	99
CC(=O)Nc1ccc(S(=O)(=O)C(F)F)cc1	-15	72	85	/
COc1ccc(CSc2nnc3c4c5c(sc4nc(SC)n23)COC(C)(C)C5)cc1	/	112	87	107
Cc1cccc(N2CCN(C(=O)c3cc(C4CC4)[nH]n3)CC2)c1C	-6	/	/	103
Cc1ccc(S(=O)(=O)c2nnn3c2nc(N2CCCC2)c2sccc23)cc1	/	87	97	109
Cn1nnnc1SCC(=O)NCc1cccc(C(=O)O)c1	/	80	85	103
c1ccc2c(c1)oc1c(NCc3ccc4c(c3)OCO4)ncnc12	0	80	95	/
O=C1COc2ccc(-c3cc(-c4ccccc4)c4c(n3)-c3cc(Cl)ccc3OC4)cc2N1	-6	92	89	105
COc1ccc(/C(O)=C(\C#N)c2nc3ccccc3[nH]2)cc1	/	97	95	107
Cc1ccc(C=Nc2cccc3ccccc23)cc1	/	111	74	104
